# FXIIa single – blocks human coagulation factor XIIa activity; purified human FXIIa, AMC substrate fluorescence, 2 h; inhibition, % at 10 µM; actives 0.2% (n = 33,000); in the data active means inhibition above about 30%;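 further: 0% = enzyme with vehicle only and 100% = no enzyme blank; many of its hits are not listed in these tables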
# An asterisk follows results filed as active.
SMILES,FXIIa single
COc1ccc(C(=O)Oc2cccnc2)cc1,0.7
O=C(O)CN1C(=O)SC(Nc2ccc(C(=O)O)cc2)C1=O (centres undefined),10.0
COc1ccc(C)c2sc(NC(=O)C3=COCCO3)nc12,3.0
COc1cc2c(cc1OC)C1(CCCC1)CNC2C (centres undefined),6.8
CC(=O)Nc1ccc(-c2nnc(SCC(=O)NCc3ccco3)n2C)cc1,7.9
COc1ccc2c(c1)Cc1sc(NC(=O)c3ccccc3)nc1-2,-2.1
COc1ccc2c(c1)CCc1sc(NC(=O)c3ccco3)nc1-2,5.7
CSc1nc(-c2ccc(Cl)cc2)nn1S(=O)(=O)c1ccc(Cl)cc1,5.8
O=C(O)CN1C(=O)SC(Nc2ccc(Cl)cc2)C1=O (centres undefined),-14.6
O=C(c1ccco1)n1nc(-c2ccccc2)nc1SCc1ccccc1,0.7

# Single values from the entries so far:
# FXIIa single result of `CC(=O)Nc1ccc(-c2nnc(SCC(=O)NCc3ccco3)n2C)cc1` : 7.9
# FXIIa single result of `O=C(O)CN1C(=O)SC(Nc2ccc(Cl)cc2)C1=O` (centres undefined) : -14.6
# FXIIa single result of `CSc1nc(-c2ccc(Cl)cc2)nn1S(=O)(=O)c1ccc(Cl)cc1` : 5.8
# FXIIa single result of `COc1ccc(C(=O)Oc2cccnc2)cc1` : 0.7

# Some of the entries so far, with each value named.
COc1ccc(C)c2sc(NC(=O)C3=COCCO3)nc12
  FXIIa single: 3.0
COc1cc2c(cc1OC)C1(CCCC1)CNC2C (centres undefined)
  FXIIa single: 6.8
CC(=O)Nc1ccc(-c2nnc(SCC(=O)NCc3ccco3)n2C)cc1
  FXIIa single: 7.9
COc1ccc2c(c1)Cc1sc(NC(=O)c3ccccc3)nc1-2
  FXIIa single: -2.1

# Next structures follow.
SMILES,FXIIa single
COCc1cc(=O)[nH]c(/N=C(\N)Nc2cccc(C)c2)n1,-0.9
CCOC(=O)c1cc(OC(=O)c2ccccc2Br)n(-c2ccccc2)n1,7.0
CC(=O)c1ccc(NC(=O)c2cnn3ccccc23)cc1,13.9
COc1ccc(S(=O)(=O)N(CCCN2CCOCC2)Cc2cccc(OC)c2OC)cc1,0.0
O=C(Nc1ccccc1)c1cccnc1N1CCCC1,6.7
CCCc1ccc(OCc2ccc(C(=O)O)o2)c(OC)c1,2.9

# Not all compounds are listed; most or all hits stand in other tables.
